Tgondii IFNg: T. gondii growth inhibition under IFN-gamma. AID 1259416. activity change, negative = inhibition, %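 (about 20 µM by stock and volumes)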. Toxoplasma gondii growth in IFN-gamma-treated host cells; hits give low values; reference of the scale not given here. actives 3.8% (n = 69,000);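 active = below -70%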;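 note: host cells are HeLa cells infected with Toxoplasma gondii; parasite growth read as luciferase light; one replicate is shown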
* marks the source's active call; other numbers are inactive results.

What do the screens show for `CCC(=O)N1CCC2(CC1)NC(=O)N(C1CCCN(C(=O)COc3ccccc3)C1)C2=O` (stereo not given)?
Tgondii IFNg: 20

What do the screens show for `O=C(NCc1ccccn1)[C@@H]1C[C@@H]2CCN(c3ncc(F)cn3)C[C@@H]2O1`?
Tgondii IFNg: -3

What do the screens show for `CCOC(=O)NN1C(=O)c2ccccc2NC1c1ccc(OC)c(OC)c1` (stereo not given)?
Tgondii IFNg: 30

Results for CCc1cc2c(NCCC(=O)O)ncnc2s1 ?
Tgondii IFNg: -10

How did CO[C@@H]1CCN(c2ncc(C)cn2)[C@H]1Cc1ccccc1 do in these assays?
Tgondii IFNg: 115

What do the screens show for `O=C(COc1ccccc1)N1CCN(c2ccccc2)CC1`?
Tgondii IFNg: -4

How did CCn1nc(C)c(C(=O)N2CCCC(c3nn(C)c(=O)n3CC)C2)c1C (stereo not given) do in these assays?
Tgondii IFNg: -2

What do the screens show for `CC(C)CCN1C(=O)N(Cc2cccnc2)C(=O)C12CCN(Cc1ccc3c(c1)OCCO3)CC2`?
Tgondii IFNg: -17

Results for Cc1ccc(Cl)c(C(=O)N(C)Cc2cnc3ccccc3c2)c1 ?
Tgondii IFNg: -3

What do the screens show for `CN(C)Cc1nnc(SCC(=O)O)n1-c1ccccc1C(F)(F)F`?
Tgondii IFNg: -40

The closing 3 compounds of the part above are carried over, then new ones follow:
What do the screens show for `CC(C)CCN1C(=O)N(Cc2cccnc2)C(=O)C12CCN(Cc1ccc3c(c1)OCCO3)CC2`?
Tgondii IFNg: -17

Results for Cc1ccc(Cl)c(C(=O)N(C)Cc2cnc3ccccc3c2)c1 ?
Tgondii IFNg: -3

What do the screens show for `CN(C)Cc1nnc(SCC(=O)O)n1-c1ccccc1C(F)(F)F`?
Tgondii IFNg: -40

What do the screens show for `CCOc1ccc(C(=O)NCCc2sc(-c3ccc(F)cc3)nc2C)cc1OCC`?
Tgondii IFNg: 17

How did CCCC(=O)N1CCc2c([nH]c3ccccc23)C1c1ccccc1 (stereo not given) do in these assays?
Tgondii IFNg: 259

How did Cc1ncc(-c2nc(C3CCNCC3)cc(=O)[nH]2)s1 do in these assays?
Tgondii IFNg: 4

Results for O=C(c1ccco1)N1CCN(C(c2ccccc2F)c2nnnn2CC2CCCO2)CC1 (stereo not given) ?
Tgondii IFNg: 28

How did CC1=CC2=NC(=O)CC(C)(C(=O)NCCCc3ccc(F)cc3)N2C=C1 (stereo not given) do in these assays?
Tgondii IFNg: -15

What do the screens show for `O=C(O)c1ccc2[nH]c(=O)c(=O)[nH]c2c1`?
Tgondii IFNg: 37

How did c1cc2c(cc1C1CCCCC1)c1c3n2CCN=C3CCC1 do in these assays?
Tgondii IFNg: 16

What do the screens show for `O=C(NCCc1csc(-c2ccc(Cl)cc2)n1)c1ccccc1`?
Tgondii IFNg: -40

What do the screens show for `CCCc1nc(NCc2cnn3cccnc23)c2cnn(C)c2n1`?
Tgondii IFNg: 2

How did O=C1CCCN1CC1CN(Cc2ccccn2)Cc2nccn2C1 (stereo not given) do in these assays?
Tgondii IFNg: -71*

How did Cc1nonc1NC(=O)CN1C[C@@H](c2cccc(F)c2)[C@@H]2NCCCCC[C@H]21 do in these assays?
Tgondii IFNg: 3

Results for Cc1ccc(-c2nc3ccccc3[nH]2)cc1 ?
Tgondii IFNg: -14

What do the screens show for `COc1cccc(CN2CC3(CN(CC4CCOCC4)C3)c3c([nH]c4cc(OC)ccc34)[C@@H]2CO)c1`?
Tgondii IFNg: 140

Results for CN(C)CC(O)Cn1c2ccccc2c2ccccc21 (stereo not given) ?
Tgondii IFNg: -10

How did O=C(Nc1cc(F)ccc1F)N[C@@H]1CC[C@H](CC(=O)N2CCc3ccccc3C2)O[C@@H]1CO do in these assays?
Tgondii IFNg: -43

What do the screens show for `CC(C)=CCC/C(C)=C/CC/C(C)=C/CSc1ccccc1C(=O)O`?
Tgondii IFNg: 16

How did Cc1ccc2c(C)c(C(=O)N(C)Cc3nnc(-c4ccccc4)o3)oc2c1 do in these assays?
Tgondii IFNg: -7

What do the screens show for `Cc1cnn(-c2cnn3cccnc23)c1`?
Tgondii IFNg: -11

Results for O=C(NC[C@@H]1N[C@@H](CO)[C@H]1c1ccccc1)c1ccccc1F ?
Tgondii IFNg: -6

What do the screens show for `CN1CCOCC12CCN(c1ccc(C#N)cc1)CC2`?
Tgondii IFNg: 53

Retrieved one by one from the entries so far (five):
Results for Cc1ccc(-c2nc3ccccc3[nH]2)cc1 ?
Tgondii IFNg: -14

How did Cc1ccc2c(C)c(C(=O)N(C)Cc3nnc(-c4ccccc4)o3)oc2c1 do in these assays?
Tgondii IFNg: -7

How did O=C(Nc1cc(F)ccc1F)N[C@@H]1CC[C@H](CC(=O)N2CCc3ccccc3C2)O[C@@H]1CO do in these assays?
Tgondii IFNg: -43

What do the screens show for `Cc1cnn(-c2cnn3cccnc23)c1`?
Tgondii IFNg: -11

Results for CN(C)CC(O)Cn1c2ccccc2c2ccccc21 (stereo not given) ?
Tgondii IFNg: -10

Additional entries:
What do the screens show for `COc1cc2c(cc1OC)CN(S(=O)(=O)c1ccc3c(c1)CCC(C)(C)O3)CC2`?
Tgondii IFNg: 33

Results for Cc1noc(C)c1NC(=O)N1C[C@H](O)COC[C@H]2O[C@@H](CC(=O)N[C@@H]3CCN(Cc4ccccc4)C3)CC[C@@H]21 ?
Tgondii IFNg: 12

What do the screens show for `COc1ccccc1C#Cc1ccc([C@@H]2[C@@H](CO)N3CCCCN(C(=O)C4CCC4)C[C@H]23)cc1`?
Tgondii IFNg: -53

Results for Cc1noc(C)c1NC(=O)N(C)C[C@H]1OCc2ccccc2-c2c(n(C)c3ccccc23)C(=O)N([C@H](C)CO)C[C@H]1C ?
Tgondii IFNg: -17

How did CCOc1ccccc1-c1cc(C)cnc1-n1cnnc1 do in these assays?
Tgondii IFNg: -2

Results for O=C(NCc1ccccc1)C1CCN(S(=O)(=O)c2ccc3[nH]c(=O)ccc3c2)CC1 ?
Tgondii IFNg: 133

How did CSc1ccc(-c2noc(-c3c(O)c4ccccc4[nH]c3=O)n2)cc1 do in these assays?
Tgondii IFNg: 33

What do the screens show for `CC(=O)N1CCC2(CC1)CCN(C(=O)C1CC1)C2`?
Tgondii IFNg: -2

How did COc1ccc(CNC(=O)CN(C(=O)c2csnn2)c2ccc3c(c2)OCO3)cc1 do in these assays?
Tgondii IFNg: -20

What do the screens show for `C#CCCC(=O)N(Cc1sccc1C)CC(C)C`?
Tgondii IFNg: 15

What do the screens show for `c1cc2c(cc1C13CC4CC(CC(C4)C1)C3)n1nnnc1c1nnnn21`?
Tgondii IFNg: -24

Results for CCN(Cc1ccccc1)C(=O)CCN1CCOC(C(F)(F)F)C1 (stereo not given) ?
Tgondii IFNg: -6

What do the screens show for `CO/N=C1\CC(C)(C)Cc2c(-c3ccn(C(=O)c4cccs4)n3)sc(SC)c21`?
Tgondii IFNg: -76*

Results for CCOC(=O)c1ccc(CNS(=O)(=O)c2c(C)ccc3nsnc23)o1 ?
Tgondii IFNg: -9

Results for COc1cc(OC)cc(C(=O)Nc2ccc(-c3nc(-c4cc(C)ccc4C)co3)cc2)c1 ?
Tgondii IFNg: -40

How did OC[C@H]1[C@@H](c2ccc(C#Cc3ccccc3F)cc2)[C@@H]2CN(CC3CCOCC3)CCCCN12 do in these assays?
Tgondii IFNg: -58

Results for CC(C)NC(=O)C1CCC2(CCN(Cc3ccccc3)CC2)CO1 (stereo not given) ?
Tgondii IFNg: -1

How did CCC1=N[C@@]2(CC[C@@H]3CN(c4ncccn4)C[C@H]32)C(=O)N1CCOC do in these assays?
Tgondii IFNg: -39

How did CC1CCN(S(=O)(=O)c2ccc3c(c2)CCC(=O)N3CC(=O)Nc2ccc3c(c2)OCCO3)CC1 do in these assays?
Tgondii IFNg: -88*

How did O=S(=O)(Nc1ccc(Oc2ncnc3cc(Cl)ccc23)nc1)c1cccs1 do in these assays?
Tgondii IFNg: 10

How did CN1CCc2nc(NC(=O)CCc3ccc(S(N)(=O)=O)cc3)sc2C1 do in these assays?
Tgondii IFNg: 10

Results for C[C@@H]1CN([C@H](C)CO)C(=O)c2cc(NS(=O)(=O)c3cccs3)ccc2O[C@@H](C)CCCCO[C@@H]1CN(C)C(=O)c1ccncc1 ?
Tgondii IFNg: 14

What do the screens show for `CCCC(=O)Nc1ccc2c(c1)C(=O)N(C)[C@@H]1CC[C@H](CC(=O)N3CCCCC3)O[C@@H]1CO2`?
Tgondii IFNg: 0

How did CCOc1ncnc2c1CCN(C1CCOCC1)CC2 do in these assays?
Tgondii IFNg: -29

What do the screens show for `Cc1ccc(-c2nc(CCNC(=O)c3ccc4ccccc4c3)cs2)cc1`?
Tgondii IFNg: inactive

How did CCc1ccc(CNc2nc(-c3nnc(-c4ccccc4)o3)nc3ccccc23)cc1 do in these assays?
Tgondii IFNg: 258

Results for CCC(C)SSc1ncc[nH]1 (stereo not given) ?
Tgondii IFNg: 12

What do the screens show for `CCn1nc(C(=O)O)c2c1CCC(NCc1cn3nc(C)sc3n1)C2` (stereo not given)?
Tgondii IFNg: 9

Results for CC1CCC(NC(=O)CN2C(=O)CCc3cc(S(=O)(=O)N4CCCCC4)ccc32)CC1 (stereo not given) ?
Tgondii IFNg: -18

Results for C=CCOCC1c2c(ncn2C)CCN1CC1CC1 (stereo not given) ?
Tgondii IFNg: 29

How did O=C(c1cccs1)N1CCN(c2ncccn2)CC1 do in these assays?
Tgondii IFNg: -39

What do the screens show for `CCCNC(=O)N1[C@H](C#N)[C@H](c2ccccc2-c2ccccc2F)[C@@H]1CO`?
Tgondii IFNg: -17

How did CN(C)CCOCc1nn(C)c2c1CN(C(=O)c1ccc[nH]1)CC2 do in these assays?
Tgondii IFNg: 26

Results for CN(C)C(=O)CN1CC[C@@H]2[C@H]1CCN2Cc1nccs1 ?
Tgondii IFNg: 15

What do the screens show for `COCCN1C(=O)CCC12CCC(NCc1cccc(C)n1)CC2` (stereo not given)?
Tgondii IFNg: -1

Results for Cc1cc(C)n(Cc2cc(C(=O)N(C)CCCn3cccn3)n[nH]2)n1 ?
Tgondii IFNg: -5

How did CCOC(=O)c1c(C(F)(F)F)cc(-c2ccccc2)nc1C do in these assays?
Tgondii IFNg: 12

Results for CNC[C@@H]1Oc2c(NS(=O)(=O)c3ccc(Cl)cc3)cccc2C(=O)N([C@H](C)CO)C[C@@H]1C ?
Tgondii IFNg: 20

What do the screens show for `COC(=O)c1cc(C(=O)OC)c(=O)[nH]c1C`?
Tgondii IFNg: 1

How did CCOc1ccc(C(=O)NCCc2sc(-c3ccc(Cl)cc3)nc2C)cc1OCC do in these assays?
Tgondii IFNg: 31

What do the screens show for `COc1ccc2[nH]c(=O)c(CNc3ccc4c(c3)-c3ccccc3S(=O)(=O)N4)cc2c1`?
Tgondii IFNg: 27

How did CCOC1C2CCC1N(C(=O)c1cnccn1)C2 (stereo not given) do in these assays?
Tgondii IFNg: 2

How did Cc1oc2cc(O)ccc2c(=O)c1Oc1ccccc1Br do in these assays?
Tgondii IFNg: -11

What do the screens show for `O=C(NCCCn1ccnc1)[C@@H]1CN(Cc2ccccc2)C[C@H]1C(=O)c1ccc(F)cc1`?
Tgondii IFNg: 7

Results for COCc1c(C(=O)N2CCc3c(ncnc3N3CCOCC3)C2)noc1C ?
Tgondii IFNg: 2

How did O=C(NCc1cccnc1)C1=NOC2(CCCN(C(=O)Cc3ccc(F)cc3)C2)C1 (stereo not given) do in these assays?
Tgondii IFNg: 54

How did COc1ccc(CCNC(=S)NC(=O)/C=C/c2ccc(C)cc2)cc1OC do in these assays?
Tgondii IFNg: 27

How did Cc1cccc(-c2nc(C)c(CCNC(=O)c3c(F)cccc3F)s2)c1 do in these assays?
Tgondii IFNg: inactive

Results for CCOc1ccc(-c2cc3c(=O)n(Cc4nc(-c5ccccc5OCC)oc4C)ccn3n2)cc1 ?
Tgondii IFNg: 91

Results for CC1(NC(=O)CC2CCN(Cc3cccc(C(F)(F)F)c3)CC2)CCC1 ?
Tgondii IFNg: 2

What do the screens show for `CC(=O)N1CCc2c(nc(N(C)C)nc2N(C)CC2CCCO2)C1` (stereo not given)?
Tgondii IFNg: 21

Results for COc1ccc(C(=O)N2CCC3(CN(C)C(=O)O3)C2)cc1O (stereo not given) ?
Tgondii IFNg: -3

How did CC(=O)c1sc(C2CCN(C(=O)CN3C(=O)c4ccccc4S3(=O)=O)CC2)nc1C do in these assays?
Tgondii IFNg: -3

How did CCN1CCC2(CN(CCOC)CC23CCN(C(=O)Cc2ccsc2)CC3)C1=O (stereo not given) do in these assays?
Tgondii IFNg: -37

What do the screens show for `CN(CCCn1cccn1)C(=O)c1ccc(-c2ccccc2Cl)o1`?
Tgondii IFNg: 0

What do the screens show for `CN(C)C1CCN(Cc2ccsc2)C(C(=O)O)C1` (stereo not given)?
Tgondii IFNg: 25

What do the screens show for `Cc1noc(C)c1NC(=O)Nc1ccc2c(c1)CC(=O)N([C@@H](C)CO)C[C@H](C)[C@H](CN(C)Cc1ccc(C(F)(F)F)cc1)O2`?
Tgondii IFNg: -46

Results for Cc1cc2ccccc2n1CCC(=O)NC1CCN(Cc2ccccn2)CC1 ?
Tgondii IFNg: -35

How did Cc1ccc(C)c(-c2coc(-c3ccc(NC(=O)C(C)(C)C)cc3)n2)c1 do in these assays?
Tgondii IFNg: -60

Results for COc1cc(OC)c(NC(=O)Cn2ncc3c(N4CCCCC4)ncnc32)cc1Cl ?
Tgondii IFNg: 35

Results for CC(Cc1ccncc1)NC(=O)CCc1nc(-c2ccccc2F)no1 (stereo not given) ?
Tgondii IFNg: 0

Results for COCCN1CCC2(CC1)CC1(CCN(S(=O)(=O)C3CC3)CC1)N(C)C2=O ?
Tgondii IFNg: -1

Results for Cc1oc(C(C)(C)C)cc1C(=O)NCc1ccc2c(c1)OCO2 ?
Tgondii IFNg: -53

What do the screens show for `Cc1cnc(NCc2ccccc2CN2CCCC2=O)nc1N(C)C`?
Tgondii IFNg: -1

What do the screens show for `O=C(NCC[C@@H]1CC[C@@H](NC(=O)c2ccccc2F)[C@@H](CO)O1)c1cnccn1`?
Tgondii IFNg: -37

How did CC(C)N1CCOCC2(CCCN(C(=O)c3ccc4ncccc4c3)C2)C1 (stereo not given) do in these assays?
Tgondii IFNg: 1

Screening results (PubChem)

Only part of the results is shown; the hit share may differ from the screen's.
